HIV Env fusion – inhibitors of HIV-1 Env-driven cell-cell fusion, primary screen, HeLa-JRFL effector, CEM21 target cells, luciferase; actives 1.1% (n = 360,000); inhibition, % at 12.3 µM; AID 651610, 2012;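 active = mean replicate inhibition score of at least 50 and every replicate individually at or above 50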;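 note: 0% = plate neutral controls and 100% = maraviroc near 300 nM; one replicate is shown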
MT1-MMP act inh – blockers of MT1-MMP proenzyme processing, primary screen, HT1080 RFP-PRO-GFP cells, GFP/RFP fluorescence | Matrix metalloproteinase-14 (Homo sapiens), P50281 | GFP/RFP ratio fluorescence, overnight; percent of plate control window, DMSO zero | GFP/RFP ratio change, % at 20 µM | actives 0.061% (n = 360,000);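 active = GFP/RFP ratio change of at least 30% with cell ATP level not reduced by more than half and red fluorescence within 50% of control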; note: strong numbers were not always called active
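Material – HT1080 RFP-PRO-GFP cells · Control set – DMSO wells and RFP-L50D-GFP cells · Incubation – overnight cell settling, then overnight compound exposure, 37 °C, 5% CO2 · Compound dosing – single-point 20 µM compound, 1% DMSO · Read-out – GFP/RFP fluorescence ratio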
MT1-MMP act inh RFP – second read-out of MT1-MMP act inh, no call of its own (marks repeat the call); RFP signal change, %; measured here: RFP expression control read;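 0 = vehicle wells; hits needed this value within 50% of zero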
Starred values were filed as active, the others as inactive; [ ] = another dose, or the depositor's remark. This is a subset; rates above refer to the full screens.

Each structure is followed by: HIV Env fusion	MT1-MMP act inh	MT1-MMP act inh RFP
Cc1cc(O)cc2c1C1CCC3(C)C(=O)CCC3C1C=C2 (stereo unspecified)
 : 17	1	-6
CCCc1cc(=O)[nH]c(SCC(=O)Nc2cc(S(=O)(=O)N3CCOCC3)ccc2N(CC)CC)n1
 : 14	-1	-1
COCCNc1nc(Oc2cccc(NC(C)=O)c2)c2sc(-c3ccccc3)cc2n1
 : -22	-5	-3
CCOC(=O)[C@]12CCC=C1N(Cc1ccco1)C(=O)[C@H](CC(=O)N1CCOCC1)C2
 : -3	1	0
O=[N+]([O-])c1cccc(C=NN=C2c3ccccc3-c3ccccc32)c1
 : -18	1	1
COC(=O)[C@@]12C[C@@H](CC(=O)NCc3cccs3)C(=O)N(Cc3ccco3)C1=CCC(C)(C)C2
 : 11	2	-2
O=c1ccc(-c2nc3ccccc3n2C(CCc2ccccc2)c2nc3ccccc3[nH]2)c[nH]1 (stereo unspecified)
 : -78	7	4
CCCCCNC(=O)C(c1cccc2ccccc12)n1c(=O)c(-c2cc3ccccc3[nH]2)nc2ccccc21 (stereo unspecified)
 : 53	1	-5
N#CCCn1nc2c(c1N)CCC2
 : -2	-4	-3
COc1ccc(CN2C(=O)C(CC(=O)NC3CCCCC3)CC(C(=O)N3CCOCC3)=C2C)cc1 (stereo unspecified)
 : 3	1	5
CCCn1c(N)c(C(=O)CSc2nnc3ccccn23)c(=O)n(C)c1=O
 : 20	-1	5
COC(=O)[C@]12CCCCC=C1N(Cc1ccccc1)C(=O)[C@H](CC(=O)NCc1ccc(C)o1)C2
 : -35	7	0
O=C(NCc1ccccc1)C(c1cccc2ccccc12)n1c(=O)c(-c2ccccc2)nc2ccccc21 (stereo unspecified)
 : 28	-5	-7
O=C(c1ccoc1)N1CCN(c2cc(-c3cccc(F)c3)nc3cc(-c4cccc(Cl)c4)nn23)CC1
 : 13	7	-26
COC(=O)N1C2CCCCC2=NN(c2ccccc2)N1C(=O)OC (stereo unspecified)
 : -6	2	3
COc1cc(C=CC(=O)c2cc(OC)c(OC)c(OC)c2)cc(OC)c1OC
 : 35	8	-10
CCOC(=O)C1CCCN(C(=O)c2c(-c3ccccc3)noc2C)CC1 (stereo unspecified)
 : -38	6	5
COCCCN1C(=O)C(CC(=O)NCCCN(C)C)CC(C(=O)N2CCCCCC2)=C1C (stereo unspecified)
 : -27	2	1
C#CCNC(=O)C[C@@H]1C[C@@]2(C(=O)OCC)CCCC=C2N(Cc2cccc3ccccc23)C1=O
 : 19	1	-3
O=S1(=O)CCN(c2ccccc2CC(c2c[nH]c3ccccc23)c2c[nH]c3ccccc23)CC1
 : 85*	-2	-6
CNC(=O)c1sc(N2N=C3/C(=C\c4ccccc4)CCCC3C2c2ccccc2)nc1C (stereo unspecified)
 : 6	-13	-13
Cc1noc(C)c1NC(=O)N1C[C@H](O)COC[C@H]2O[C@@H](CC(=O)NCC3CCCCC3)CC[C@@H]21
 : 12	3	6
CCOC(=O)N1CCN(C(c2ccnc3ccccc23)c2nnnn2-c2ccc3c(c2)OCCO3)CC1 (stereo unspecified)
 : -29	-8	-11
Cc1cccc(C)c1NC(=O)C1(C)CSCC(=O)N1CCOc1ccccc1 (stereo unspecified)
 : -17	9	5
O=C(Nc1ccc2c(c1)OCCO2)C1C(c2ccccc2)=Nc2ccccc2N1C(=O)c1cccnc1 (stereo unspecified)
 : -131	5	-1
CC(Sc1nnc(-c2ccccc2F)n1C)C(=O)Nc1ccc(N2CCOCC2)cc1 (stereo unspecified)
 : -8	2	5
O=C(C[C@H]1CC[C@H]2[C@@H](COC[C@@H](O)CN2C(=O)c2cnccn2)O1)NCc1ccc(Oc2ccccc2)cc1
 : 19	-1	2
CC(=O)c1ccc(S(=O)(=O)Nc2c(C)nn(C)c2C)cc1
 : -5	3	-3
CC(C)(C)NC(=O)C(c1cccc2ccccc12)n1c(=O)c(-c2ccccc2)nc2ccccc21 (stereo unspecified)
 : 10	-13	-17
CC(C)(C)C1CCC(=O)N2CCC[C@]2(c2ccccc2)C1 (stereo partly specified)
 : 10	0	4

In another format: 12 of the compounds above.
HIV Env fusion,MT1-MMP act inh,MT1-MMP act inh RFP,SMILES
17,1,-6,Cc1cc(O)cc2c1C1CCC3(C)C(=O)CCC3C1C=C2 (stereo unspecified)
14,-1,-1,CCCc1cc(=O)[nH]c(SCC(=O)Nc2cc(S(=O)(=O)N3CCOCC3)ccc2N(CC)CC)n1
-22,-5,-3,COCCNc1nc(Oc2cccc(NC(C)=O)c2)c2sc(-c3ccccc3)cc2n1
-3,1,0,CCOC(=O)[C@]12CCC=C1N(Cc1ccco1)C(=O)[C@H](CC(=O)N1CCOCC1)C2
-18,1,1,O=[N+]([O-])c1cccc(C=NN=C2c3ccccc3-c3ccccc32)c1
11,2,-2,COC(=O)[C@@]12C[C@@H](CC(=O)NCc3cccs3)C(=O)N(Cc3ccco3)C1=CCC(C)(C)C2
-78,7,4,O=c1ccc(-c2nc3ccccc3n2C(CCc2ccccc2)c2nc3ccccc3[nH]2)c[nH]1 (stereo unspecified)
53,1,-5,CCCCCNC(=O)C(c1cccc2ccccc12)n1c(=O)c(-c2cc3ccccc3[nH]2)nc2ccccc21 (stereo unspecified)
-2,-4,-3,N#CCCn1nc2c(c1N)CCC2
3,1,5,COc1ccc(CN2C(=O)C(CC(=O)NC3CCCCC3)CC(C(=O)N3CCOCC3)=C2C)cc1 (stereo unspecified)
20,-1,5,CCCn1c(N)c(C(=O)CSc2nnc3ccccn23)c(=O)n(C)c1=O
-35,7,0,COC(=O)[C@]12CCCCC=C1N(Cc1ccccc1)C(=O)[C@H](CC(=O)NCc1ccc(C)o1)C2

Back to the main list, starting 2 compounds before the break.
Each structure is followed by: HIV Env fusion	MT1-MMP act inh	MT1-MMP act inh RFP
CC(C)(C)NC(=O)C(c1cccc2ccccc12)n1c(=O)c(-c2ccccc2)nc2ccccc21 (stereo unspecified)
 : 10	-13	-17
CC(C)(C)C1CCC(=O)N2CCC[C@]2(c2ccccc2)C1 (stereo partly specified)
 : 10	0	4
O=C(NCc1ccccc1)C1C(c2ccccc2)=Nc2ccccc2N1C(=O)c1ccncc1 (stereo unspecified)
 : 9	-2	2
COC(=O)C1=CN(c2ccc(C(C)(C)C)cc2)C(N)=C(C#N)C1c1cccc([N+](=O)[O-])c1 (stereo unspecified)
 : -2	-2	-9
CCCCn1nnnc1C1(C)CCC(=O)N1Cc1ccc(F)cc1 (stereo unspecified)
 : -6	5	3
Cc1ccc(C)c(N2CCN(C(C(=O)NC3CCCC3)c3ccco3)CC2)c1 (stereo unspecified)
 : 6	-8	-18
Cc1c(C(=O)N2CCN(S(=O)(=O)c3ccccc3)CC2)oc2ccccc12
 : 50	3	0
CCCCN1C(=O)C(CC(=O)NCCCCc2ccccc2)CC(C(=O)N2CCCCCC2)=C1C (stereo unspecified)
 : -5	4	-4
CC(C)CC(=O)Nc1ccc(C(=O)COC(=O)CN2C(=O)NC3(CCCCC3C)C2=O)cc1 (stereo unspecified)
 : -11	-6	1
CCCCCCCCN1C(=O)[C@H](CC(=O)N2CCN(C(=O)C3CC3)CC2)C[C@@]2(C(=O)OC)CCCCC=C12
 : 11	6	-5
CCOC(=O)[C@]12CCCC=C1N(Cc1ccc(Cl)cc1Cl)C(=O)[C@H](CC(=O)NCc1cccc(C(F)(F)F)c1)C2
 : -9	-5	-12
COC1=Nc2ccccc2N2CCN=C12
 : -20	0	5
CC(C)Nc1nc(NCCN2CCCC2)c2sc(-c3ccccc3)cc2n1
 : -28	8	5
CCCCNC(=O)C[C@@H]1C[C@@]2(C(=O)OC)CC(C)(C)CC=C2N(Cc2ccc3c(c2)OCO3)C1=O
 : 0	0	-5
CC1(C(=O)NCc2ccccc2)CN(S(C)(=O)=O)CC(=O)N1CCCn1ccnc1 (stereo unspecified)
 : 8	8	11
COc1cc2cc(c1Cl)N(C)C(=O)CC(OC(=O)C(C)N(C)C(C)=O)C1(C)OC1C(C)C1CC(O)(NC(=O)O1)C(OC)C=CC=C(C)C2 (stereo unspecified)
 : -6	19	2
CC(C)(C)OC(=O)N1CCN(C(c2ccnc3ccccc23)c2nnnn2-c2ccc3c(c2)OCCO3)CC1 (stereo unspecified)
 : 16	5	-5
CCOC(=O)CCc1ccc(NC(=O)/C=C/c2ccc([N+](=O)[O-])o2)cc1
 : -315	-48	-26
C#CCNC(=O)c1cc(-c2ccccc2)sc1N
 : -25	-4	2
O=c1[nH][nH]c2c1C(C1CCCCC1)OC(C1CCCCC1)C2 (stereo unspecified)
 : 30	9	3
CC(C)NC(=O)CN1CCN(C(c2ccnc3ccccc23)c2nnnn2-c2ccc3c(c2)OCCO3)CC1 (stereo unspecified)
 : -4	0	4
CC(C)C[C@H]1CN(CCCC[C@H]2CNC(=O)C(=O)N2CC2CCCCC2)C(=O)C(=O)N1CCC1CCCCC1
 : -36	0	-9
CCCCn1nnnc1C1(C)CCC(=O)N1CCc1ccccc1F (stereo unspecified)
 : 25	7	5
O=C(Nc1ccc2ccccc2c1)C(c1ccccc1)n1c(=O)c(-c2cc3ccccc3[nH]2)nc2ccccc21 (stereo unspecified)
 : 24	-5	-5
COc1ccc(NC(=O)C2c3ccccc3OCC(=O)N2Cc2ccc3c(c2)OCO3)cc1 (stereo unspecified)
 : -18	2	1
O=C(C[C@H]1C=C[C@@H](NS(=O)(=O)c2ccccc2)[C@@H](CO)O1)NCc1ccc(Cl)c(Cl)c1
 : -52[16.7 µM]	0	-5
O=C1CSC(=S)N1N=Cc1c(O)ccc2ccccc12
 : -6	-50	3
COCCNC(=S)N(C)[C@H]1C[C@H]2c3cc(Oc4ccccc4C)ccc3CCN2C(=O)[C@H]1[C@H](C)O
 : -185	-4	-3
COc1cc(C(=O)C(=O)N2CCN(c3ccc(C)cc3)CC2)cc2ccccc12
 : 2	-3	-12
CCCCOCCCNC(=O)C[C@@H]1C[C@@]2(C(=O)OCC)CCC=C2N(CCC2=CCCCC2)C1=O
 : 13	12	3
Cc1cccc(C)c1NC(=O)C(C1CC1)n1c(=O)c(-c2ccco2)nc2ccccc21 (stereo unspecified)
 : -7	-11	9
Nc1nc2ncccc2cc1C(=O)NC1CCCCC1
 : 22	3	7

Molecule	HIV Env fusion	MT1-MMP act inh	MT1-MMP act inh RFP
CC(C)(C)NC(=O)C(c1cc2ccccc2o1)n1c(=O)c(-c2ccco2)nc2ccccc21 (stereo unspecified)	-27	-14	-3
CC(C)(C)OC(=O)N1C(=O)[C@](OC(=O)c2ccccc2)(c2ccccc2)c2cccc(F)c21	0	1	-11
Cc1cc(F)ccc1S(=O)(=O)Nc1ccccc1C(=O)NC1CCN(Cc2ccccc2)CC1	-9	7	0
CCCCCCCCN1C(=O)[C@H](CC(=O)NCc2ccc(OC)c(OC)c2)C[C@@]2(C(=O)OCC)CCCC=C12	70*	2	-7
O=C(NCc1ccc(F)cc1F)[C@@H]1CCCN1C(=O)[C@@H]1CCCN1C(=O)c1cccc(Cl)c1	1	2	2
CCCCC(O)C1=C[N+](=O)CC=C1 (stereo unspecified)	-17	5	4
CC(C)n1nnnc1C1c2ccccc2C(=O)N1Cc1ccccc1 (stereo unspecified)	7	4	5
N#Cc1cccc(OCCCN2CCC(C(O)(c3ccccc3)c3ccccc3)CC2)c1	-15	6	5
O=C1C(=O)c2ccccc2C(O)=C1CC=C(Cl)Cl	-45	18	9
O=C(NC1CCCC1)C1C(c2ccc(C(F)(F)F)cc2)=Nc2ccccc2N1C(=O)c1ccco1 (stereo unspecified)	-22	-1	-3
Cc1ccc(S(=O)(=O)N2C[C@@]3(O)Cn4c(=O)ccc(=O)n4C[C@@]3(OC(=O)NCC3CCCCC3)C2)cc1	-6	7	4
CCC(=O)N1Cc2cc(C(=O)Nc3nccs3)nc(-c3cccc(-c4ccccc4OC)c3)c2[C@@H]1CCO	18	1	-4
O=C(NC1CCCC1)C1C(c2ccccc2)=Nc2ccccc2N1C(=O)c1ccc(C(F)(F)F)cc1 (stereo unspecified)	11	-26	-30
CCC(C(=O)Nc1c(C)cccc1C)n1c(-c2ccc(=O)[nH]c2)nc2ccccc21 (stereo unspecified)	14	-2	2
COc1ccc(C(=O)Nc2cccc(/C=C(/CCC(=O)O)c3nc4ccccc4s3)c2)cc1	-1	9	-2

Molecule	HIV Env fusion	MT1-MMP act inh	MT1-MMP act inh RFP
O=C1NC[C@@H](CCCCN2CCN(Cc3ccccc3)C(=O)C2=O)N(Cc2ccccc2)C1=O	1	2	3
O=S1(=O)CC(N2CC=CC2)CN1Cc1cn(Cc2ccc(F)cc2)nn1 (stereo unspecified)	-8	2	8
c1ccc(OCCNc2nc(NCC3CC3)nc3ccsc23)cc1	12	0	-17
CCN(C)C1CN(Cc2cn(Cc3cccc(Cl)c3)nn2)S(=O)(=O)C1 (stereo unspecified)	-8	3	7
CCOC(=O)[C@]12CCC=C1N(Cc1ccc(Cl)cc1Cl)C(=O)[C@H](CC(=O)NCc1cccs1)C2	18	0	-11
CC(OC(=O)CNC(=O)c1ccc(F)cc1)C(=O)Nc1ccc(S(=O)(=O)N2CCOCC2)cc1 (stereo unspecified)	2	-1	3

Source: PubChem (several laboratories)
